Assay outcomes from PubChem BioAssay.
Vaccinia stage = Vaccinia orthopox stage-specific inhibition | Vaccinia-infected cells, mCherry/Venus stage reporter fluorescence; stronger effect = lower value; some inactives read as strong as hits | activity change (mCherry), % (concentration not given with the values) | 89,000 tested, 0.01% active | AID 1053133;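 active means mCherry past -33% and 40 or more points under the early reporter, replicates agreeing; inconclusive means past -33% without that gap or agreement; tested in A549 cells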;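 further: scaled between vehicle wells and reference inhibitor wells; 23 nL library stock went into each well; one replicate is shown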
Vaccinia stage Venus = further read-out of Vaccinia stage, marked with its call; activity change (Venus), %; measured here: Venus reporter, other viral stage;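 negative = less Venus signal; first of two replicates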
Active calls of the source: *.

Preview (two entries):
Results for C/C=C/c1ccc2c(c1)[C@H]1[C@H](CCN1C(=O)c1ccc3c(c1)OCO3)[C@H](CO)N2 ?
Vaccinia stage: 13.8; Vaccinia stage Venus: 13.7

Results for CCCN(C)C[C@@H]1Oc2ncc(C#CC3CCCCC3)cc2C(=O)N([C@@H](C)CO)C[C@H]1C ?
Vaccinia stage: inconclusive

The listing (from the top)
Results for C/C=C/c1ccc2c(c1)[C@H]1[C@H](CCN1C(=O)c1ccc3c(c1)OCO3)[C@H](CO)N2 ?
Vaccinia stage: 13.8; Vaccinia stage Venus: 13.7

Results for CCCN(C)C[C@@H]1Oc2ncc(C#CC3CCCCC3)cc2C(=O)N([C@@H](C)CO)C[C@H]1C ?
Vaccinia stage: inconclusive

How did CCCN(C)C[C@H]1OCCCC[C@@H](C)Oc2ccc(NC(=O)Nc3ccc(C(F)(F)F)cc3)cc2C(=O)N([C@@H](C)CO)C[C@H]1C do in these assays?
Vaccinia stage: -6.8; Vaccinia stage Venus: -6.6

What do the screens show for `C[C@@H]1CN([C@H](C)CO)S(=O)(=O)c2ccc(C#CC3CCCC3)cc2O[C@@H]1CN(C)CC1CC1`?
Vaccinia stage: inconclusive

How did COc1ccc2c3c([nH]c2c1)[C@H](CO)N(C(=O)c1cnccn1)CC31CCN(S(C)(=O)=O)CC1 do in these assays?
Vaccinia stage: 12.6; Vaccinia stage Venus: 3.8

How did C[C@H](CO)N1C[C@H](C)[C@@H](CN(C)S(C)(=O)=O)Oc2ncc(C#CCN(C)C)cc2C1=O do in these assays?
Vaccinia stage: 28.2; Vaccinia stage Venus: 18.0

How did C[C@@H]1CN([C@H](C)CO)C(=O)c2cc(C#CC3CCCC3)cnc2O[C@H]1CN(C)C(=O)c1ccncc1 do in these assays?
Vaccinia stage: -3.2; Vaccinia stage Venus: 0.6

What do the screens show for `C[C@@H]1CN([C@@H](C)CO)C(=O)c2cc(NC(=O)Nc3ccc(F)cc3)ccc2O[C@H]1CN(C)S(=O)(=O)c1ccc(F)cc1`?
Vaccinia stage: -5.5; Vaccinia stage Venus: -0.4

What do the screens show for `O=C(Cc1ccccc1)N[C@H]1CC[C@H](CC(=O)N2CCCCC2)O[C@H]1CO`?
Vaccinia stage: 1.1; Vaccinia stage Venus: 10.8

What do the screens show for `CC(C)NC(=O)Nc1ccc2c(c1)C(=O)N([C@@H](C)CO)C[C@@H](C)[C@H](CN(C)S(=O)(=O)c1ccc(Cl)cc1)O2`?
Vaccinia stage: -6.2; Vaccinia stage Venus: -7.4

What do the screens show for `C[C@H]1CN([C@@H](C)CO)C(=O)c2cccc(NC(=O)NC3CCCCC3)c2O[C@H]1CN(C)CC1CCCCC1`?
Vaccinia stage: -21.5; Vaccinia stage Venus: -14.5

How did C[C@@H]1CCCCO[C@H](CN(C)C(=O)Nc2ccc(F)cc2)[C@H](C)CN([C@@H](C)CO)C(=O)c2cc(NS(=O)(=O)c3ccccc3)ccc2O1 do in these assays?
Vaccinia stage: -20.3; Vaccinia stage Venus: -16.1

3 entries from above, sorted by molar mass, largest number first:
What do the screens show for `C[C@@H]1CN([C@H](C)CO)S(=O)(=O)c2ccc(C#CC3CCCC3)cc2O[C@@H]1CN(C)CC1CC1`?
Vaccinia stage: inconclusive

How did C[C@H](CO)N1C[C@H](C)[C@@H](CN(C)S(C)(=O)=O)Oc2ncc(C#CCN(C)C)cc2C1=O do in these assays?
Vaccinia stage: 28.2; Vaccinia stage Venus: 18.0

Results for C/C=C/c1ccc2c(c1)[C@H]1[C@H](CCN1C(=O)c1ccc3c(c1)OCO3)[C@H](CO)N2 ?
Vaccinia stage: 13.8; Vaccinia stage Venus: 13.7

New compounds follow.
Results for C[C@@H]1CCCCO[C@@H](CN(C)C(=O)Nc2ccccc2)[C@H](C)CN([C@@H](C)CO)C(=O)c2cc(NC(=O)Nc3ccc(F)cc3)ccc2O1 ?
Vaccinia stage: 26.2; Vaccinia stage Venus: 14.6

Results for C[C@H]1CN([C@@H](C)CO)C(=O)Cc2cc(NC(=O)Cc3cn(C)c4ccccc34)ccc2O[C@@H]1CN(C)C(=O)Nc1cccc2ccccc12 ?
Vaccinia stage: 21.7; Vaccinia stage Venus: 19.6

How did CN1C(=O)c2cc(NC(=O)C3CCOCC3)ccc2OC[C@H]2O[C@H](CC(=O)NCCc3ccncc3)CC[C@H]21 do in these assays?
Vaccinia stage: 15.2; Vaccinia stage Venus: 13.1

What do the screens show for `C[C@@H]1CN([C@H](C)CO)C(=O)Cc2cc(NC(=O)Cc3ccccc3)ccc2O[C@@H]1CN(C)S(=O)(=O)c1cccs1`?
Vaccinia stage: 2.3; Vaccinia stage Venus: 0.2

Results for C[C@H](CO)N1C[C@H](C)[C@H](CN(C)S(=O)(=O)c2ccc(F)cc2)Oc2ncc(-c3cccc(C(=O)N(C)C)c3)cc2C1=O ?
Vaccinia stage: 6.4; Vaccinia stage Venus: 9.5

How did O=C(CN1CCOCC1)NCC[C@@H]1CC[C@H](NC(=O)Nc2ccc(F)cc2)[C@@H](CO)O1 do in these assays?
Vaccinia stage: 8.7; Vaccinia stage Venus: -0.9

Results for O=C(Nc1cc(F)ccc1F)N1CCCCN2[C@H](CO)[C@H](c3ccc(-c4ccncc4)cc3)[C@H]2C1 ?
Vaccinia stage: 9.8; Vaccinia stage Venus: 6.5

Results for CCCN1[C@@H]2c3ccc(-c4ccccc4)c(=O)n3C[C@@H]2[C@@H](CO)[C@@H]1C(=O)N[C@@H](C)c1ccccc1 ?
Vaccinia stage: -30.7; Vaccinia stage Venus: -18.1

What do the screens show for `C[C@@H]1CCCCO[C@H](CN(C)Cc2ccc(C(=O)O)cc2)[C@@H](C)CN([C@H](C)CO)C(=O)c2cc(NC(=O)Nc3ccc4c(c3)OCO4)ccc2O1`?
Vaccinia stage: 4.3; Vaccinia stage Venus: 8.3

Results for CC(C)NC(=O)N(C)C[C@@H]1OCCCC[C@@H](C)Oc2ccc(NC(=O)Cc3ccccc3)cc2C(=O)N([C@@H](C)CO)C[C@@H]1C ?
Vaccinia stage: 16.3; Vaccinia stage Venus: 6.1

Results for C[C@H]1CN([C@@H](C)CO)C(=O)CCCn2cc(nn2)CO[C@@H]1CN(C)C ?
Vaccinia stage: 16.9; Vaccinia stage Venus: 14.0

Results for O=C(C[C@@H]1C[C@@H]2c3cc(NC(=O)CC4CC4)ccc3O[C@@H]2[C@H](CO)O1)NCc1ccccc1F ?
Vaccinia stage: 13.0; Vaccinia stage Venus: 1.5

How did C[C@H](CO)N1C[C@H](C)[C@@H](CN(C)S(=O)(=O)c2ccccc2)Oc2ccc(NC(=O)c3ccncc3)cc2CC1=O do in these assays?
Vaccinia stage: 5.3; Vaccinia stage Venus: 3.4

Results for C[C@@H]1CN([C@H](C)CO)C(=O)c2cc(-c3ccc(F)cc3)cnc2O[C@H]1CN(C)CC1CCCC1 ?
Vaccinia stage: inconclusive

What do the screens show for `O=C(C[C@H]1CC[C@H]2[C@@H](COC[C@H](O)CN2C(=O)c2ccncc2)O1)NCc1cc(F)cc(F)c1`?
Vaccinia stage: 4.4; Vaccinia stage Venus: 8.7

How did CNC[C@@H]1Oc2ncc(C#Cc3cccc(F)c3)cc2C(=O)N([C@H](C)CO)C[C@@H]1C do in these assays?
Vaccinia stage: -19.3; Vaccinia stage Venus: -7.7

How did CCCC(=O)Nc1ccc2c(c1)OC[C@@H](C)N(CC1CCOCC1)C[C@H](C)[C@@H](OC)CN(C)C2=O do in these assays?
Vaccinia stage: 11.3; Vaccinia stage Venus: 6.0

Results for CCCNC(=O)C[C@H]1CC[C@@H]2[C@H](COc3ccc(NC(=O)CCC)cc3C(=O)N2C)O1 ?
Vaccinia stage: 1.2; Vaccinia stage Venus: -3.0

What do the screens show for `COc1cccc(-c2ccc3c(c2)O[C@@H](CN(C)Cc2cccnc2)[C@H](C)CN([C@H](C)CO)S3(=O)=O)c1`?
Vaccinia stage: inconclusive

Results for COCCCNC(=O)[C@@]1(C)c2ccccc2C(=O)N(Cc2ccc(OC(F)(F)F)cc2)[C@H]1c1ccc(CO)cc1 ?
Vaccinia stage: 1.9; Vaccinia stage Venus: 1.8

Results for C[C@@H]1CN([C@@H](C)CO)C(=O)c2cc(NC(=O)Cc3cn(C)c4ccccc34)ccc2O[C@@H]1CN(C)C(=O)NC1CCCCC1 ?
Vaccinia stage: -1.9; Vaccinia stage Venus: 3.8

How did C[C@@H]1CN([C@@H](C)CO)C(=O)c2cc(Br)cnc2O[C@H]1CN(C)C(=O)NC1CCCC1 do in these assays?
Vaccinia stage: 7.9; Vaccinia stage Venus: 4.5

How did Cc1ccccc1-c1ccc([C@@H]2[C@@H](CO)N3CCCCN(C(=O)c4cccnc4)C[C@@H]23)cc1 do in these assays?
Vaccinia stage: -9.9; Vaccinia stage Venus: 1.4

How did COc1ccc2c3c(n(C)c2c1)[C@@H](CO)N(C(=O)c1ccc(F)cc1)CC31CN(C(=O)c2ccc(F)cc2)C1 do in these assays?
Vaccinia stage: -10.3; Vaccinia stage Venus: -9.0

Results for C[C@@H](O)C#Cc1ccc2c(c1)O[C@@H](CN(C)C(=O)C1CCC1)[C@@H](C)CN([C@@H](C)CO)S2(=O)=O ?
Vaccinia stage: 4.3; Vaccinia stage Venus: 3.1

What do the screens show for `Cc1noc(C)c1S(=O)(=O)Nc1ccc2c(c1)C(=O)N([C@H](C)CO)C[C@H](C)[C@H](CN(C)Cc1ccc(Cl)c(Cl)c1)OCCCC[C@@H](C)O2`?
Vaccinia stage: -29.4; Vaccinia stage Venus: -19.7

How did CN1c2ccc(-c3ccc(C#N)cc3)cc2[C@@H]2[C@@H](CCN2C(=O)C2CCCCC2)[C@H]1CO do in these assays?
Vaccinia stage: -9.4; Vaccinia stage Venus: -10.2

What do the screens show for `CO[C@H](CN(C)S(=O)(=O)c1ccccc1)[C@@H](C)CN(Cc1ccccc1Cl)[C@H](C)CO`?
Vaccinia stage: -8.5; Vaccinia stage Venus: -1.4

Results for COc1ccc(S(=O)(=O)N(C)C[C@@H]2OCCCC[C@H](C)Oc3ccc(N(C)C)cc3C(=O)N([C@@H](C)CO)C[C@H]2C)cc1 ?
Vaccinia stage: -7.1; Vaccinia stage Venus: -9.5

What do the screens show for `COc1cccc(-c2ccc([C@@H]3[C@@H](CO)N4CCCCN(C(=O)c5ccc(F)cc5)C[C@H]34)cc2)c1`?
Vaccinia stage: -33.5; Vaccinia stage Venus: -27.1

What do the screens show for `COC(=O)[C@@H]1[C@@H](CO)[C@@H]2Cn3c(ccc(-c4cccc(F)c4)c3=O)[C@@H]2N1Cc1ccccn1`?
Vaccinia stage: 4.9; Vaccinia stage Venus: 12.8

What do the screens show for `COc1cccc(-c2ccc3c(c2)[C@@H]2[C@@H](CCN2C(=O)CN(C)C)[C@H](CO)N3C)c1`?
Vaccinia stage: -13.3; Vaccinia stage Venus: -5.1

What do the screens show for `C[C@H](CO)N1C[C@H](C)[C@H](CN(C)S(=O)(=O)c2ccc(F)cc2)Oc2cc(C#Cc3ccc(F)cc3)ccc2S1(=O)=O`?
Vaccinia stage: inconclusive

How did CNC[C@@H]1Oc2ncc(-c3ccc(C)cc3)cc2C(=O)N([C@@H](C)CO)C[C@@H]1C do in these assays?
Vaccinia stage: -11.4; Vaccinia stage Venus: -10.9

How did O=C(Cc1ccncc1)NCC[C@H]1CC[C@@H](NC(=O)Nc2ccc(F)cc2)[C@@H](CO)O1 do in these assays?
Vaccinia stage: -5.3; Vaccinia stage Venus: -5.4

What do the screens show for `COCC#Cc1ccc2c(c1)O[C@H](CN(C)C(=O)C1CC1)[C@@H](C)CN([C@H](C)CO)S2(=O)=O`?
Vaccinia stage: 22.1; Vaccinia stage Venus: 18.2

How did CN(C)CC(=O)Nc1ccc2c(c1)[C@H]1C[C@H](CC(=O)NC3CCCCC3)O[C@H](CO)[C@H]1O2 do in these assays?
Vaccinia stage: 11.3; Vaccinia stage Venus: 4.7

How did C[C@H]1CN([C@@H](C)CO)C(=O)c2cccc(NC(=O)c3cnccn3)c2O[C@@H]1CN(C)Cc1ccc(Oc2ccccc2)cc1 do in these assays?
Vaccinia stage: -27.4; Vaccinia stage Venus: -22.0

Results for Cc1noc(C)c1S(=O)(=O)N(C)C[C@H]1Oc2c(NS(=O)(=O)c3cn(C)cn3)cccc2C(=O)N([C@H](C)CO)C[C@H]1C ?
Vaccinia stage: 9.4; Vaccinia stage Venus: 8.1

How did C[C@@H]1CCCCO[C@@H](CN(C)Cc2ccccc2)[C@@H](C)CN([C@@H](C)CO)C(=O)c2cc(NC(=O)Nc3ccc(F)cc3)ccc2O1 do in these assays?
Vaccinia stage: inconclusive

Results for C[C@H]1CCCCO[C@@H](CN(C)Cc2ccc(C(=O)O)cc2)[C@@H](C)CN([C@@H](C)CO)C(=O)c2cc(NC(=O)Nc3ccccc3)ccc2O1 ?
Vaccinia stage: 21.7; Vaccinia stage Venus: 16.3

What do the screens show for `CO[C@@H](CN(C)C(=O)C1CC1)[C@@H](C)CN(C(=O)Nc1ccc(C(F)(F)F)cc1)[C@@H](C)CO`?
Vaccinia stage: -12.1; Vaccinia stage Venus: -8.9

How did O=C(C[C@H]1CC[C@@H]2[C@H](COC[C@@H](O)CN2S(=O)(=O)c2ccc(Cl)cc2)O1)N[C@H]1CCN(Cc2ccccc2)C1 do in these assays?
Vaccinia stage: -19.3; Vaccinia stage Venus: -13.8

What do the screens show for `C[C@@H]1CN([C@@H](C)CO)C(=O)c2cccc(NC(=O)C3CCOCC3)c2O[C@@H]1CN(C)C(=O)Nc1ccc(F)cc1`?
Vaccinia stage: 12.8; Vaccinia stage Venus: -0.8

How did O=C([C@@H]1[C@@H](CO)[C@@H]2Cn3c(ccc(C4=CCCC4)c3=O)[C@H]1N2)N1CCCCC1 do in these assays?
Vaccinia stage: 21.8; Vaccinia stage Venus: 15.8

What do the screens show for `COc1ccc(NC(=O)N(C)C[C@H]2Oc3ncc(-c4ccc(C#N)cc4)cc3C(=O)N([C@@H](C)CO)C[C@@H]2C)cc1`?
Vaccinia stage: 0.7; Vaccinia stage Venus: -4.1

These rows are one share of the data. The share of hits here may be higher or lower than overall.
